# KCNQ2 enhance = potentiators of rat KCNQ2 potassium channel. Potassium voltage-gated channel subfamily KQT member 2 (Rattus norvegicus), O88943. CHO-K1 KCNQ2, FluxOR thallium flux fluorescence; active compounds read high. B-score at 10 µM. actives 0.54% (n = 310,000). AID 2239, 2010;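 active = fluorescence ratio B-score at least 3 SD of library B-scores, with initial fluorescence B-score within 3 SD, cut at about 5.3 in these data; same plate scores as AID 2156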;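 note: B-score of peak minus minimum over baseline fluorescence ratio after K+ and Tl+ stimulus; positive B-score means potentiation of KCNQ2 with more thallium influx and brighter signal; only the inactives scoring about 0 or higher are listed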
# Target sequence (O88943 whole entry, looked up): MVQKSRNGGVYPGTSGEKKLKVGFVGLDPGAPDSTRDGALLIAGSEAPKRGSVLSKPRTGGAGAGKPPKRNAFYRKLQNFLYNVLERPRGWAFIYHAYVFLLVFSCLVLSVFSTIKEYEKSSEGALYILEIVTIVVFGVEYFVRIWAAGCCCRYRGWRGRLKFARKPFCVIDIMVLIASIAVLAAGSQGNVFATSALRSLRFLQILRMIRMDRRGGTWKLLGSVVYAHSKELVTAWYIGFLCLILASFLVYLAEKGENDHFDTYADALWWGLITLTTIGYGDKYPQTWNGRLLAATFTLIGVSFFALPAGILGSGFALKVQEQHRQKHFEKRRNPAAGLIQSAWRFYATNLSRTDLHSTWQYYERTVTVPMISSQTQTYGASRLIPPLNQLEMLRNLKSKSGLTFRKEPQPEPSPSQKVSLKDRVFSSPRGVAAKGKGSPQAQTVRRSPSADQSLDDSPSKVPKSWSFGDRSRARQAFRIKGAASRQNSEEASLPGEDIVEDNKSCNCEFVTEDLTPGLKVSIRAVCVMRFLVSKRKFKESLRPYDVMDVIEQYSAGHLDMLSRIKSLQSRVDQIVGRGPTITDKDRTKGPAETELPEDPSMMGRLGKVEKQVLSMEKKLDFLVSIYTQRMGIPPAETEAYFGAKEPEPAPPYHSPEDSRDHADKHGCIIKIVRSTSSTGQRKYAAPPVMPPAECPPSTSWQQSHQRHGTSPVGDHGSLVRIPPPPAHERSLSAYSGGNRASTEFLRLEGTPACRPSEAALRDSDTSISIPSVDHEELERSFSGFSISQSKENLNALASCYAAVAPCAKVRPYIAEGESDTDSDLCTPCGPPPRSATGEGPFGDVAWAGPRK
# KCNQ2 enhance baseline = recorded beside KCNQ2 enhance, whose call it bears; B-score; compound at 10 µM; measured here: initial fluorescence intensity artifact check;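 brightness before thallium and not channel activity; 0 = typical well and far values either way flag optical interference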
# Numbers without * were called inactive. A portion of the library; count on the stated rates, not on these rows.
# Values run as follows: KCNQ2 enhance, KCNQ2 enhance baseline
- CCOC(=O)N1CCC(NC(=O)CS(=O)Cc2nc(-c3ccc(Cl)cc3)oc2C)CC1 (stereo unspecified)
  1.7, -0.45
- COc1ccc(CNC(=O)CN(C(=O)CCC(=O)Nc2ccccn2)c2ccc(C)cc2)cc1
  2.4, 2.2
- O=C(OCC1CCNCC1)c1ccc2c(c1)OCO2
  0.5, 1.4
- OC(COc1ccc2c(c1)OCO2)CN1CCN(c2ccccc2)CC1 (stereo unspecified)
  0.18, -0.87
- CC(C)CCn1c(-c2nonc2N)nc2ccccc21
  0.45, 1.5
- CC(C)C(=O)Nc1cccc(NC(=S)NC(=O)C(c2ccccc2)c2ccccc2)c1
  2.1, -1
- Cc1ccsc1C(=O)OCC(=O)N1CCN(C(=O)c2ccco2)CC1
  0.67, 1.1
- Cc1cccc(C2c3[nH]c4ccccc4c3CCN2C(=O)Cc2nc(-c3ccccc3)n[nH]2)n1 (stereo unspecified)
  2.8, -0.73
- c1ccc(CN2C3=NCCCN3c3ccccc32)cc1
  0.53, 1.2
- CC(=O)c1c(C)[nH]c(C(=O)COc2cc(C)cc(C)c2)c1C
  0.85, 1.3
- CC(C)(C)Nc1nc(C(N)=O)nc(N2CCOCC2)n1
  0.89, -0.05
- O=C(N/N=C/c1ccc(O)cc1)c1[nH]c2ccc(Br)cc2c1-c1ccccc1
  1.3, -0.05
- CCCn1c2ccccc2c2cnn(CC(=O)NCCCN3CCCC(C)C3)c(=O)c21 (stereo unspecified)
  0.7, -2
- CCc1ccc(OCC(=O)NC(C)(C)C)cc1
  0.07, 0.31
- CCOc1ccc(OCC)c(NC(=O)CN2CCN(c3cccc(C)c3)CC2)c1
  1.9, 0.35
- COc1cc(/C=C2\C(=N)N3N=C(S(C)(=O)=O)SC3=NC2=O)cc(OC)c1OCCOc1ccc(C)cc1
  0.02, -1
- CCOC(=O)C1(CCOc2ccccc2)CCN(Cc2ccccc2O)CC1
  0.6, 1.1
- O=C(/C=C/c1cccc([N+](=O)[O-])c1)Nn1c(-c2ccccc2F)nc2ccccc2c1=O
  0.06, -1.6
- COc1ccc(CNC(=O)COC(=O)c2ccccn2)cc1
  0.49, -0.23
- CCc1ccc(OCC(=O)Nc2ccc(S(=O)(=O)N3CCCC3)cc2)c(Br)c1
  0.88, -0.03
- COc1ccc(-c2cc(C)no2)cc1S(=O)(=O)N1CCOc2ccc(C)cc21
  1.3, -0.68
- CC(=O)N1N=C(c2cccs2)CC1c1ccco1 (stereo unspecified)
  1.2, 0.32
- COc1ccc(Cl)cc1C(=O)NNC(=S)NC1CCCCC1
  0.88, 1.4
- NC(=S)Nc1cnc2ccccc2c1
  1.1, 0.54
- CCN(CC)S(=O)(=O)c1ccc2c(c1)c(=O)c(C(=O)NCCOC)cn2C
  0.28, 0.19
- Cc1ccc(OCC(=O)Nc2ccc3c(c2)C(=O)N(CCC(=O)O)C3=O)cc1
  2, 0.08
- COc1ccc(CNC(=O)CSc2ncnc3nc[nH]c23)cc1
  1.6, 0.5
- COCCn1c(COc2ccc(Cl)cc2)nnc1SCC(N)=O
  0.75, -0.15
- COc1ccc2c(c1)c(=O)c(C(=O)O)c(-c1ccc3c(c1)OCO3)n2C
  0.12, -1.3
- Cn1c(=O)c2cn(Cc3ccc(Cl)cc3)cc2n(C)c1=O
  0.36, 0
- O=C(NCCCN1CCOCC1)c1ccc2ccccc2c1
  0.37, -0.97
- CC(=NCCc1ccccc1)C1=C(O)COC1=O
  0.53, -0.2
- O=C(CCc1ccc(S(=O)(=O)NCc2ccccc2)cc1)NCC1CCCO1 (stereo unspecified)
  0.08, 0.29
- C=CCNC(=O)N1C2=NC(C(=O)OC)=C(C(=O)OC)[C@@H]3N(Cc4ccccc4)c4ccccc4[C@]23C[C@H]1C(=O)OC
  0.08, 2
- CN1CCN(CCCNC(=O)c2ccc3c(c2)N(Cc2ccccc2)CCS3)CC1
  0.22, 0.51
- CCc1ccc(NC(=O)C2CCCN(S(=O)(=O)c3ccc4[nH]c(=O)ccc4c3)C2)cc1 (stereo unspecified)
  0.54, 3
- Cn1ccnc1C(OC(=O)c1ccccc1)C(F)(F)F (stereo unspecified)
  0.01, 1.5
- Cc1nc2nc(SCC(=O)O)nn2c(C)c1Cc1c(F)cccc1Cl
  0.36, -0.59
- COCCN1C(=O)c2oc3ccccc3c(=O)c2C1c1cccc(O)c1 (stereo unspecified)
  1.9, -1.3
- COc1ccc(CCn2c(C(C)C)nc3c(c(=O)c4ccccc4n3C)c2=O)cc1
  3.3, -2.8
- COc1ccc(NC(=S)Nc2ccccc2F)c(OC)c1
  0.11, 0
- S=c1[nH]nc(NCCc2ccccc2)s1
  0.74, -0.7
- CC(C)(C)c1cc(CCC(=O)NNC(=O)c2ccco2)cc(C(C)(C)C)c1O
  0.05, -1.5
- COC(=O)Cc1n[nH]c(=O)c2ccccc12
  1.4, -1.4
- Cc1cc([N+](=O)[O-])ccc1NCc1ccc2ccccc2c1
  1.1, 1.1
- COC(=O)c1ccc2c(=O)[nH]c(CSc3nnc(C(F)(F)F)n3C)nc2c1
  0.14, 0
- O=c1c(Cc2c(F)cccc2Cl)c(O)ccn1CCc1ccccn1
  0.25, -0.59
- O=C(CCN1C(=O)C2C3C=CC(C3)C2C1=O)Nc1ccc2ncccc2c1 (stereo unspecified)
  0.24, -0.63
- COc1cc2c(C(=O)O)c(C)n(C)c2c2ccccc12
  0.31, 0.35
- CN(C(=O)CCN1C(=O)/C(=C/c2ccccc2)SC1=S)C1CCS(=O)(=O)C1 (stereo unspecified)
  0.42, 0.08
- CCCCn1cnc(C(=O)OCC)c1N
  1.4, 0.07
- COc1ccc(N(CC(=O)N/N=C/c2ccco2)S(=O)(=O)c2ccccc2)cc1
  1.2, -1.3
- Cn1c(N)c(C(=O)COC(=O)CCC2CCCC2)c(=O)n(C)c1=O
  0.67, -0.38
- COCCCNC(=S)NNC(=O)c1ccccn1
  0.48, -0.29
- CC(C)N1CCc2c(sc(NC(=O)c3ccc(S(=O)(=O)N4CCOCC4)cc3)c2C(N)=O)C1
  0.96, 0.4
- CC(=O)c1ccc(NC(=S)NC(=O)Cc2ccc(Cl)cc2)cc1
  0.95, -1.5
- CC(C)C[C@H](NC(=O)[C@H](Cc1ccccc1)n1c(=O)[nH]c2ccccc2c1=O)C(=O)N1CCC[C@@H]1C(=O)O
  0.2, 0.32
- CCOc1ccc(NC(=O)c2ccc(-n3cccn3)nc2)cc1
  0.86, 1.1
- COc1ccc(-c2csc(C3=C(O)CN(C(C)C)C3=N)n2)cc1OC
  1.7, -1.9
- Cc1ccc(NC(=O)NNC(=O)c2cccs2)cc1
  1.6, -1

# (further entries)
# Values run as follows: KCNQ2 enhance, KCNQ2 enhance baseline
- Cc1ccc(CNCc2cccnc2)s1
  0.04, -0.42
- CN1C(=O)C(C)(C)c2cc(S(=O)(=O)NCC3CCC(C(=O)NC4CCCCC4)CC3)ccc21 (stereo unspecified)
  0.91, 1.6
- CCCOc1ccccc1C1NC(=O)NC(C)=C1C(=O)OCc1ccccc1 (stereo unspecified)
  1.7, -1.3
- COCCNC(=O)c1ccccc1-c1ccccc1C(=O)O
  0.99, 2.7
- COC1CCCN(C(=O)c2ccc(OC3CCN(S(=O)(=O)N(C)C)CC3)cc2)C1 (stereo unspecified)
  1.4, 2.9
- O=c1oc2ccccc2c(CNc2ccccc2)c1[N+](=O)[O-]
  1.1, -0.05
- CSc1nc(SCC(=O)NCC2CCCO2)c2c3c(sc2n1)CN(C)CC3 (stereo unspecified)
  0.05, -0.85
- CNc1nc(SC)nc2ccsc12
  0.46, -0.03
- O=[N+]([O-])c1ccccc1/C=N/n1c(-c2cccnc2)n[nH]c1=S
  1.5, -0.97
- O=C(O)c1ccccc1NC(=O)C1C2C=CC(C2)C1C(=O)O (stereo unspecified)
  0.01, 1.2
- COc1ccc(NC(=O)Nc2ccc3[nH]ccc3c2)cc1
  1.5, 0.48
- COCCNC(=O)CNC(=S)N(Cc1ccccc1)Cc1cccnc1
  0.09, 1.2
- COc1ccc(/C(C)=N\Nc2nc(-c3ccccc3)cc(=O)[nH]2)cc1
  0.01, 1.1
- Nc1nccc(-c2ccc(-n3cccc3)cc2)n1
  0.25, 0.9
- CCOc1ccc(OCC)c(NC(=O)C2COc3ccccc3O2)c1 (stereo unspecified)
  1.5, -0.47
- CCOC(=O)c1cn2nc(N3CCCC3)ccc2n1
  0.52, -0.84
- CC1=CCC2C(=O)N(c3cccc(C(=O)NCc4ccccc4)c3)C(=O)C2C1 (stereo unspecified)
  0.41, 1.9
- CC(C)(C)S(=O)(=O)c1ccccc1C(=O)O
  0.98, -0.57
- COc1ccccc1NC(=O)C(C)N1CCN(C/C=C/c2ccccc2)CC1 (stereo unspecified)
  0.13, -1.4
- COCCn1c(-c2ccc(Cl)cc2Cl)nc2c(c(=O)c3ccccc3n2C)c1=O
  0.79, -0.55
- Cn1cnnc1Sc1ccc(C(=O)OCC(=O)NCC(F)(F)F)cc1[N+](=O)[O-]
  0.01, -1.4
- CCOc1ccc2nc(NC(=O)CSC3=NCCS3)sc2c1
  1.4, -0.81
- Cn1c(=O)c2c(nc(CN3CCC(C(N)=O)CC3)n2Cc2ccccc2Cl)n(C)c1=O
  0.84, -2.4
- Cc1nc(NCC2CCCO2)c2oc3ccccc3c2n1 (stereo unspecified)
  0.83, 0.35
- CCCCCC/C=C/c1ccc([C@H]2[C@H]3C=CC[C@@H](C)[C@@H]3C(=O)N2Cc2ccccc2)c(F)c1
  2, 0.03
- Cc1nn(C)c(C(=O)N/N=C/c2ccccn2)c1[N+](=O)[O-]
  0.06, 0.71
- COc1ccccc1CN1CC(C(=O)NCc2cccnc2)CC1=O (stereo unspecified)
  0.86, -1.3
- Cc1csc(NC(=O)c2ccccc2)n1
  0.02, -1.3
- C=CCN=C(NC#N)SCCc1ccccc1
  0.17, -0.59
- C[C@]12C=CC(=O)C=C1CC[C@@H]1[C@@H]2C(=O)C[C@@]2(C)[C@H]1CC[C@]2(O)C(=O)COC(=O)CCC(=O)O
  1.8, -0.15
- c1ccc(-c2ccc(-c3[nH]ncc3CN3CCC(N4CCSCC4)CC3)cc2)cc1
  0.02, -1.3
- COCCCN1C(=O)c2ccc(C(=O)Nc3ccc(OC)cc3OC)cc2C1=O
  0.06, 1.4
- Cc1nn(Cc2ccccc2)c(=O)c2nn(-c3ccc(Cl)cc3)c(C)c12
  1.1, 2.1
- Cc1ccc(C(=O)NNC(=O)c2ccc(NS(=O)(=O)c3cccs3)cc2)s1
  0.61, 1.8
- CCc1ccc(NC(=O)C2CCN(S(=O)(=O)c3ccc4c(c3)NC(=O)CO4)CC2)cc1
  0.94, -1.2
- O=S(=O)([O-])CCC[n+]1c(SCCCS(=O)(=O)O)sc2ccc(Cl)cc21
  1.1, 1.2
- Cc1cc(Br)ccc1SCC(=O)N1CCN(S(=O)(=O)c2ccccc2)CC1
  0.61, -0.69
- CCC(CC)C(=O)Nc1cc(Cl)ccc1C
  0.56, -0.62
- COc1ccccc1CC(=O)NCCN1CCCCC1
  0.46, -0.72
- CC(C)(C)C(=O)CSc1nc(N)cc(=O)[nH]1
  0.06, 3.7
- CCOc1cc(Cl)c(NC(=O)c2ccco2)cc1OCC
  0.81, -0.52
- O=C(Nc1ccc(F)cc1)Nc1ccccc1F
  3.2, -0.28
- COc1ccc(NC(=S)Nc2ccc(C)c(Cl)c2)cc1OC
  0.2, 3
- O=C(Cn1cnc2c(cnn2-c2ccccc2)c1=O)OCc1ccccc1
  0.3, 0.65
- CO/N=C/NC(=O)c1c(OC)ccnc1Oc1cccc(C(F)(F)F)c1
  1.4, -0.2
- Cc1c(-c2ccccc2)c(P(=O)(N2CCOCC2)N2CCOCC2)c2ccccn12
  0.93, 0.22
- CC(C)NC(=O)c1cc2nc(-c3ccco3)cc(C(F)(F)F)n2n1
  0.98, -1.6
- COc1ccc(CCNc2nc(C)nc3c2nnn3Cc2ccccc2)cc1OC
  0.19, -1.3
- CC(=O)Cn1ncc(N2CCOCC2)c(Br)c1=O
  0.48, -0.4
- O=C(O)CC(NC(=O)C1CCCCC1)c1cc([N+](=O)[O-])ccc1Cl (stereo unspecified)
  0.07, 0.1
- CCS(=O)(=O)c1ccc(O)c(NC(=O)NC2CCCCC2)c1
  0.76, 0.34
- O=c1/c(=C\c2cccnc2)sc2nc3ccccc3n12
  0.06, -1.2
- Clc1ccc(Cn2cnc3ccccc32)cc1
  1.3, 0.76
- COc1ccc(C(=O)N2CCC(C(=O)Nc3ccccc3C)CC2)cc1OC
  1.8, -0.18
- COc1ccc(C(=O)Nc2cc(C(C)=O)c(C)oc2=O)cc1
  0.16, -1.7
- O=C1CCC(C(=O)O)(c2ccccc2)C1 (stereo unspecified)
  1.5, -1.8
- O=C(NC(=S)NCc1cccnc1)c1cc2ccccc2o1
  0.85, 0.07
- CC(=O)N1CCN(Cc2nc3cc(NC(=O)c4ccc(F)cc4)ccc3n2C)CC1
  0.63, 0.57
- COc1ccc(OCC(=O)Nc2ccc3c(c2)nc(CN2CCCC2)n3C)cc1
  1.8, -0.73
